# TAR Tat displ = HIV-1 TAR-Tat binding disruption | HIV-1 TAR RNA, Tat peptide displacement FRET; hits give high values | z-score (concentration not given with the values) | hit rate 0.6% among 100,000 | AID 1259389;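 further: score is relative to mean and SD of negative controls; some compounds called inactive have numbers as strong as hits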
# CDC25B CDK2 inh = human CDC25B-CDK2/CyclinA binding inhibition | HTRF CDC25B-CDK2/CyclinA binding, anti-His/anti-Flag; hits give high values | z-score (test concentration not listed) | hit rate 0.72% among 94,000 | AID 1259370;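 further: score is relative to mean and SD of negative controls; strong numbers were not always called active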
# An asterisk follows results filed as active; x = not tested or not shown.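 How the source made its calls: active means z-score from 3 up in half or more of its runs; inactive means the rest.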
SMILES,TAR Tat displ,CDC25B CDK2 inh
O=C(O)C1C2C=CC3(CN(CCc4ccccc4)C(=O)C13)O2 (configuration not stated),1.5,-0.55
Cc1cc2c(cc1S(=O)(=O)NCCc1c(C)nn(C)c1C)OCC(=O)N2,1,x
COc1cc(CNCCO)cc(Br)c1OCc1cccs1,0.34,-0.53
N/C(=N\S(=O)(=O)c1cc(C(F)(F)F)cc(C(F)(F)F)c1)c1cccs1,x,-2.6
COc1ccc(C2=NC(c3ccncc3)=Nc3ccc(Br)cc3N2)cc1,1.1,0.68
CCOC(=O)c1c(NC(=O)C2CCCN2S(=O)(=O)c2ccccc2)sc(C)c1C (configuration not stated),0.5,0.87
CC(=O)N1CCC2(CC1)OC(=O)C(C)=C2C(=O)Nc1ccc(F)cc1F,1.3,x
COc1ccc(-c2ccc(=O)n(CC(=O)NCCc3ccc(S(N)(=O)=O)cc3)n2)cc1,x,-0.44
CCCNC(=O)c1nn2c(C(F)(F)F)cc(-c3cccs3)nc2c1Cl,-0.91,-1.2
CNC(=O)C(=O)NCC(c1ccco1)S(=O)(=O)c1ccc(F)cc1 (configuration not stated),1.1,x
COc1cc(NC(=O)CSc2nncn3c2cc2oc(C)cc23)cc(OC)c1,0.61,x
COC(=O)c1ccc(CSc2nc(-c3cccs3)nc3c2c(=O)n(C)c(=O)n3C)o1,x,-1.1
CCOC(=O)NC(=S)N1C(C)CCCC1C (configuration not stated),x,1.9
O=c1c2cnn(-c3ccccc3)c2nc(-c2ccco2)n1-c1ccc(Cl)cc1,x,-1.8
O=c1oc(-c2ccccc2)nc2c1C1(CCCC1)Cc1ccccc1-2,x,-0.24
O=C(CCc1nc2cccnc2n1-c1ccccc1)NCCc1c[nH]c2ccccc12,-0.2,-2
COCCN1CSC(=S)N(Cc2ccccc2)C1,x,-2.6
CCC(C)NC(=O)CN(C)S(=O)(=O)c1ccc2c(c1)C(C)(C)C(=O)N2C (configuration not stated),0.77,x
O=C(c1cccc(N2C(=O)CCS2(=O)=O)c1)N1CCc2ccccc21,1.4,-3.1
O=C(NCc1ccc(F)cc1)C1C2C=CC3(CN(Cc4cccnc4)C(=O)C13)O2 (configuration not stated),x,0.55
Cc1nn(C(=O)c2cccs2)c(C)c1S(=O)(=O)N1CCC(C)CC1,-2.1,x
O=c1[nH]c2ccc(S(=O)(=O)NCc3ccccn3)cc2s1,x,-0.47
COc1ccc(NC(=O)c2nn(-c3cccc(Cl)c3)ccc2=O)c(OC)c1,0.41,2.8
Fc1ccc(CNCCCSc2nnnn2-c2ccccc2)cc1,0.5,-0.3
COc1ccc(NC(=O)Nc2nnc(-c3ccccc3I)s2)cc1,x,-2.5
CC1CCN(C(=O)C2CCN(S(=O)(=O)c3ccc4c(c3)CC(C)N4C(=O)C3CC3)CC2)CC1 (configuration not stated),-0.01,x
COc1ccc(C2Nc3ccccc3S(=O)(=O)N2Cc2ccccc2)c(OC)c1 (configuration not stated),x,-0.74
CCCc1ccc(OCC(=O)NNC(=O)COc2cc(C)cc(C)c2)cc1,x,-1.8
Cc1cc(=O)oc2cc(NS(=O)(=O)c3ccc4c(c3)CCO4)ccc12,x,-2.1
Cc1ccccc1COC(=O)CCCC1=NS(=O)(=O)c2ccccc2N1,1.2,x
Cc1cc(C)n(-c2nc3c(c(=O)n2CC(=O)N2CCOCC2)CCCC3)n1,0.39,x
CCOC(=O)C(C)n1ncn2cccc2c1=O (configuration not stated),0.74,0.38
O=C(CN1C(=O)CC(c2ccco2)Sc2ccccc21)NCC1CCCO1 (configuration not stated),x,0.75
O=C(COc1ccc(Cl)cc1)Nc1nc2ccc(Cl)cc2o1,0.15,x
CCOCCOC(=O)C1=C(C)NC2=C(C(=O)CC(C)(C)C2)C1c1cccc(O)c1 (configuration not stated),1.1,-1.2
CCOc1c(Br)cc(CNCCCSc2nnnn2C)cc1OC,1.4,-0.58

# Filtered by structure: those above containing a CF3 group.
SMILES,TAR Tat displ,CDC25B CDK2 inh
N/C(=N\S(=O)(=O)c1cc(C(F)(F)F)cc(C(F)(F)F)c1)c1cccs1,x,-2.6
CCCNC(=O)c1nn2c(C(F)(F)F)cc(-c3cccs3)nc2c1Cl,-0.91,-1.2

# (continued)
SMILES,TAR Tat displ,CDC25B CDK2 inh
Cc1[nH]nc2c1C(c1ccc(Cl)cc1)C(C#N)=C(N)O2 (configuration not stated),x,-1.9
CC(C)NC(=O)CSc1nc(-c2ccc3c(c2)OCO3)nc2cc(=O)[nH]n12,1.5,x
CN(C)c1ccc(-c2nc3cc(NC(=O)c4ccccc4)ccc3o2)cc1,x,-1.2
CC1(C)CCc2cc(S(=O)(=O)NCc3csc(-c4cccs4)n3)ccc2O1,x,-0.72
Cc1nc(-c2ccc(/C(N)=N/O)s2)cs1,x,-2.4
CC1Cc2ccccc2N1S(=O)(=O)c1cc2c3c(c1)CCC(=O)N3CCC2 (configuration not stated),1.9,x
Cc1c(-c2nc(-c3ccc4c(c3)OCO4)no2)nnn1-c1ccccc1,0.23,x
c1ccc(C2=NN3COc4ccccc4C3C2)cc1 (configuration not stated),x,0.34
CCN1CCN(C(=O)c2cc(C)no2)CC1,-0.07,-1.6
CSc1nnc(NC(=O)c2cc(=O)c3cc(C)ccc3o2)s1,0.23,-1.9
CCOC(=O)N1CCC(NC(=O)Nc2cc(C)oc2C(F)(F)F)CC1,x,-2.5
Fc1ccc(N2CCN(c3nnc(Cc4cccnc4)c4ccccc34)CC2)cc1,-1.8,-2.4
CCc1nnc(SC(CC)C(=O)NC2CCCC2)c2cc3oc(C)cc3n12 (configuration not stated),-0.5,x
Cc1cccc(CCNc2nc3ccccc3c3nc(-c4cccnc4)nn23)c1,0.97,-0.05
CSc1ncc(C(=O)NCc2ccc(Cl)cc2)c(C(F)(F)F)n1,1.5,x
Cc1ccc(-n2ncc3c(NCc4ccc5c(c4)OCO5)ncnc32)cc1Cl,1.9,x
O=C(NCCC1=CCCCC1)c1nnc(-c2ccc3c(c2)OCO3)o1,3.7,-1.1
O=C(Nc1ccc([N+](=O)[O-])cn1)c1ccc(Sc2ccccn2)c([N+](=O)[O-])c1,x,-2.6
COC(=O)c1cc(S(=O)(=O)Nc2ccc(OC)cc2)cn1C,-0.19,-0.88
CC(C)c1ccc(NC(=O)CC(C)S(=O)(=O)c2ccc3c(c2)CCN3C(=O)C2CC2)cc1 (configuration not stated),1.3,x
Cc1cncc(C(=O)NN)c1,x,-1.5
N#C/C(C(N)=O)=C1/CCc2ccccc21,x,-2
COC(=O)c1ccc2c(c1)C1C=CCC1C(c1cccc3ccccc13)N2 (configuration not stated),-14,-0.77
Cc1sc2c(c1C)CSC(C(=O)N1CCN(c3ncccn3)CC1)=C2,0.04,x

# Seven neighbouring entries from above, for reference:
SMILES,TAR Tat displ,CDC25B CDK2 inh
O=C(Nc1ccc([N+](=O)[O-])cn1)c1ccc(Sc2ccccn2)c([N+](=O)[O-])c1,x,-2.6
COC(=O)c1cc(S(=O)(=O)Nc2ccc(OC)cc2)cn1C,-0.19,-0.88
CC(C)c1ccc(NC(=O)CC(C)S(=O)(=O)c2ccc3c(c2)CCN3C(=O)C2CC2)cc1 (configuration not stated),1.3,x
Cc1cncc(C(=O)NN)c1,x,-1.5
N#C/C(C(N)=O)=C1/CCc2ccccc21,x,-2
COC(=O)c1ccc2c(c1)C1C=CCC1C(c1cccc3ccccc13)N2 (configuration not stated),-14,-0.77
Cc1sc2c(c1C)CSC(C(=O)N1CCN(c3ncccn3)CC1)=C2,0.04,x

# More compounds follow:
SMILES,TAR Tat displ,CDC25B CDK2 inh
Cc1nn(CC(=O)Nc2ccccc2Br)c(=O)c2cccn12,0.34,-1.4
COc1ccc(Cc2nc3c4cnn(-c5ccc(C)cc5)c4ncn3n2)cc1,0.5,-0.55
Cc1nn(Cc2nnc(SCC(=O)Nc3cccc(C(F)(F)F)c3)n2C)c(C)c1[N+](=O)[O-],x,1.3
Cn1nc(C(=O)N2CCCCC2)c2c1-c1ccsc1CC2,0.63,x
Cc1c(/C=N/O)sc2ccccc12,x,0.59
COc1c(CO)cc(C)cc1CO,x,-3
Cc1ccc(S(=O)(=O)N2CCC(c3ccncc3)CC2)cc1C,0.6,x
CCOC(=O)c1nc(N2CCc3ccccc3C2)c2c(C)noc2n1,0.53,x
O=C(Cn1c(-c2cncs2)nc2ccccc21)Nc1ccccc1Cl,-1.2,-1.8
Cc1ccc(CNc2c(-c3cccc(Cl)c3)nc3ncccn23)cc1,-1.1,x
COc1ccc(OC)c(NC(=O)c2nn(-c3ccc(F)cc3)ccc2=O)c1,1.2,0.6
Cn1c(=O)c2c(SCc3cccc(C(F)(F)F)c3)nc(-c3ccco3)nc2n(C)c1=O,x,-2.7
CCOc1cc2c(cc1OCC)C1CC(=O)N(c3ccc(OC)c(OC)c3)C(=O)N1CC2 (configuration not stated),2.2,x
Nc1ncn(Cc2ccc(Br)cc2)n1,1.1,x
CC1CCCCC1NC(=O)CCCc1cn(C)c2ccccc12 (configuration not stated),1.3,x
c1ccc(-c2noc(-c3cccc4ccccc34)n2)nc1,0.01,12*
CN(C)c1ccc(C(CNS(=O)(=O)c2ccc(F)cc2)N2CCCC2)cc1 (configuration not stated),-0.38,x
O=C(Cc1ccccc1)N1CCC(c2ccccc2)=N1,1.8,-0.4
CCCc1n(CC)c2ccccc2[n+]1CC(O)COc1ccccc1 (configuration not stated),-0.14,-1.6
O=C(Cn1sc2ccccc2c1=O)NCc1ccccc1Br,0.71,-1.4
Cn1nc(-c2ccccc2F)c2cc(C(=O)Nc3ccc(F)cc3F)sc21,x,-1
COc1ccc(OC)c(-n2nnc(-c3nc(-c4ccccc4)no3)c2N)c1,-0.97,x
COC(=O)C1=C(OS(=O)(=O)c2ccc(C)cc2)CSC1,x,-2.6
COC(=O)C1=C(O)CSC1=Nc1ccc(OC)cc1,-1.7,-0.8
CN(Cc1ccccc1)C(=O)CN(C)S(=O)(=O)c1cc(Br)cnc1N,1,0.6
Cc1ccc2c(c1)C(Cc1nc3ccccc3c(=O)n1CCCO)C(=O)N2C (configuration not stated),1.6,-1.2
Cc1cc(C)c(-c2c(N3CCN(c4ccccc4F)CC3)c(=O)c2=O)cc1C,-0.31,x
COc1ccc(CN[C@H]2CS(=O)(=O)C[C@@H]2S(=O)(=O)c2ccc(C)cc2)cc1,2.1,0.41
COCC(=O)Nc1nc2nccc(C)n2n1,-0.5,4.9
CCCCCNC(=O)Cn1c(=O)sc2ccccc21,-1.8,-1.2
Cc1sc2c(c1C)c(=O)n(-c1ccc(Cl)cc1)c(=O)n2Cc1cc(=O)n2ccccc2n1,x,-1.1
CC(=O)N1c2ccc(S(=O)(=O)N(C)CC(=O)Nc3nc4cc(C)c(C)cc4s3)cc2CC1C (configuration not stated),1.4,x
CC(=O)NC1=NN(C(C)=O)C(c2cc(Br)ccc2OCc2ccc(F)cc2)S1 (configuration not stated),0.1,-1
Cc1nc(-c2cc(-c3nc(-c4ccc(C(F)(F)F)cc4)no3)no2)cs1,x,-1.2
CC(NS(=O)(=O)c1ccc(F)cc1)c1nc(-c2ccccc2Cl)no1 (configuration not stated),1.6,-1.2
Fc1ccc(Cc2cn3cc(-c4ccccc4)nc3s2)cc1,-0.15,-1.9

# In another format: 3 of the compounds above.
# Values run as follows: TAR Tat displ	CDC25B CDK2 inh
- CC(=O)NC1=NN(C(C)=O)C(c2cc(Br)ccc2OCc2ccc(F)cc2)S1 (configuration not stated)
→ 0.1	-1
- Cc1cc(C)c(-c2c(N3CCN(c4ccccc4F)CC3)c(=O)c2=O)cc1C
→ -0.31	x
- COc1ccc(CN[C@H]2CS(=O)(=O)C[C@@H]2S(=O)(=O)c2ccc(C)cc2)cc1
→ 2.1	0.41

# Next records.
SMILES,TAR Tat displ,CDC25B CDK2 inh
CCN(Cc1nc(-c2ccc(C)cc2)no1)S(=O)(=O)c1c(C)cc(C)cc1C,0.2,-1.9
COC(=O)C1=C(C)Nc2nc3ccccc3n2C1c1ccc(OCc2ccccc2)cc1 (configuration not stated),-1,-2.3
CCCN1C(=O)C2C(C(=O)Nc3cccc(SC)c3)C3C=CC2(O3)C1C(=O)NC1CCCCC1 (configuration not stated),-0.84,1
Cc1nc(-c2ccccc2)sc1-c1ccc(SCC(=O)NC2CCCC2)nn1,2,x
C=CCn1c(COc2ccc(C)cc2)nc2ccccc21,-0.1,-0.33
CC1=C(c2ccc(C)c(C)c2)S(=O)(=O)N=C1N1CCN(c2ccccc2)CC1,0.09,-1.9
COc1ccc(Nc2c(Cl)cc(OC)cc2Cl)cc1,x,-1.3
CSc1ccc(/C=C2\C(=O)N(C)N=C2C)s1,x,-1.9
Cc1cccc(CSc2nc3ncccc3[nH]2)c1,1.6,x
O=C(CC1(O)C(=O)N(Cc2ccccc2Cl)c2ccccc21)c1ccc2c(c1)OCCO2 (configuration not stated),-0.29,-0.76
CCOC(=O)c1c(C)[nH]c(C)c1S(=O)(=O)NCC(=O)N(CC)CC,1.1,x
CC1CCc2sc3ncnc(NCCCN(C)C)c3c2C1 (configuration not stated),x,-1
C=CCn1c(=O)c2ccc(C(=O)NCc3ccccc3)cc2n(CC(N)=O)c1=O,0.35,-1.1
Cc1nn(-c2ccccc2)c(C)c1C=NN1CCN(Cc2ccccc2)CC1,x,-1
Cc1cc(Nc2ccc(F)cc2)ncn1,0.98,0.88
O=S(=O)(Cc1ccc(Cl)cc1)N1CCN(Cc2ccc3c(c2)OCO3)CC1,x,-0.03
O=C(NCc1ccc(-c2csnn2)cc1)Nc1ccccc1,x,-0.46
COc1cnc(CSc2ccc(F)cc2)cc1OCC(=O)Nc1ccc(Br)cc1,1.3,x
CCNc1nc(NC(C)C)nc(OCCNS(=O)(=O)c2cc(C)ccc2C)n1,0.95,-1.2
CN(C1=NS(=O)(=O)c2ccccc21)c1ccc(O)cc1,-0.91,0.95
COc1cc2c(cc1OC)CN([C@H]1CS(=O)(=O)C[C@@H]1S(=O)(=O)c1ccc(C)cc1)CC2,-0.65,-1.2
COc1ccc(OCCC(=O)NN)cc1,x,-0.63

# Ordered by molar mass (lowest first): 3 of the compounds above
SMILES,TAR Tat displ,CDC25B CDK2 inh
Cc1ccc(CNc2c(-c3cccc(Cl)c3)nc3ncccn23)cc1,-1.1,x
CSc1ncc(C(=O)NCc2ccc(Cl)cc2)c(C(F)(F)F)n1,1.5,x
COc1ccc(C2=NC(c3ccncc3)=Nc3ccc(Br)cc3N2)cc1,1.1,0.68

# High-throughput results deposited in PubChem BioAssay by Center for Chemical Genomics, University of Michigan.
